Screening data (PubChem BioAssay)
D2 agonist – Beta-Arrestin HTS for Positive Allosteric Modulators of the Human D2 Dopamine Receptor: Agonists; DiscoveRx PathHunter D2 beta-arrestin, luminescence, 90 min; 100% = 57 uM dopamine signal; activation, % (no concentration beside the values); 360,000 tested, 0.084% active; D(2) dopamine receptor (Homo sapiens), P14416; AID 624465, 2012; in the data active = activation above about 40%; inconclusive = about 15% to 40%; inactive = below about 15%; further: compound concentration not given in the record; the text of the record calls up to 30% inactive
Target sequence (P14416 whole entry, looked up): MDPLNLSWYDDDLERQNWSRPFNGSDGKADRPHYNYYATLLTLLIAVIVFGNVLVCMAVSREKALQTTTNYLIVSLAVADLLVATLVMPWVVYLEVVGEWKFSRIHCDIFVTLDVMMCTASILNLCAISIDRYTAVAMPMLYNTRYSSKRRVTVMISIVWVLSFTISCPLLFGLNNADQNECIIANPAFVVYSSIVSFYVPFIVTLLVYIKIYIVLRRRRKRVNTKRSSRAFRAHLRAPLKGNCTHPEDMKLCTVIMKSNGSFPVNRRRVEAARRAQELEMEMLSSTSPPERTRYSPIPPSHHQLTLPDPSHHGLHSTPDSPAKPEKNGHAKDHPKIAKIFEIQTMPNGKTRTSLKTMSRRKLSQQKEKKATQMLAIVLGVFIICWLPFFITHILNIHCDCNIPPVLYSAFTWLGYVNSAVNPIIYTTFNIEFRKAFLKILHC
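DiscoveRx PathHunter D2 beta-arrestin cells (2,100/well) attached overnight, then compound-stimulated 90 min at 37 C in HBSS/10 mM HEPES/0.1% Tween-20 buffer; beta-galactosidase complementation read by luminescence after 1 h at ambient temperature. Dopamine 57 uM final (EC100) as control.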
D2 PAM – Beta-Arrestin HTS for Positive Allosteric Modulators of the Human D2 Dopamine Receptor: Potentiators | AID 624464, 2012 | potentiation, % (concentration not given with the values) | 360,000 tested, 0.23% active | DiscoveRx D2 beta-arrestin cells, luminescence, 90 min; 100% = 57 uM dopamine signal; active = potentiation of 50% or more; inconclusive = 30% to 50%; inactive = 30% or less;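 further: compound concentration not given in the record; tested on top of an EC20 dose of dopamine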
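PathHunter D2 cells, attached overnight at 37 deg C, received compound in DMSO plus dopamine at EC20 (50 nM final) for 90 min at 37 deg C. Beta-arrestin recruitment was read as luminescence after 1 h with detection reagent at ambient temperature.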
Six1-Eya2 inh – qHTS Assay for Inhibitors of the Six1/Eya2 Interaction. activity change, % (no concentration beside the values). AlphaScreen GST-Six1/His-Eya2 binding, biochemical; active compounds read low; control for the full effect not named in the record. 360,000 tested, 0.56% active. Homeobox protein SIX1 (Homo sapiens) + Protein phosphatase EYA2 (Homo sapiens), …; in the data active = activity change below about -65%; inconclusive = about -30% to -65%; inactive = above about -30%; further: on the % scale 0 is the no-effect control and ±100 the full control effect
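Six1/Eya2 binding was read as AlphaScreen signal after compounds were pinned into GST-Six1 plus His-tagged Eya2 (5X stock 250/500 nM) in pH 8.0 Tris/NaCl/TCEP buffer, beads added, then incubated 1 h, 37 C, dark.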
PINK1 modulator – A Quantitative High throughput Screen to Identify Chemical Modulators of PINK1 Expression | PINK1 immunofluorescence, high-content cytometry, 24 h | Potency, µM (top dose mostly 76.6 µM), for inactives: at the top dose activation (PINK1 increase), hits mostly activators | 410,000 tested, 0.2% active; active = well fitted activation curve with a large enough effect; inconclusive = small, poorly fitted or top-dose-only effect; inactive = flat fitted curve, though single readings scatter; cell line not stated here;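 further: potency means the concentration at half of the fitted maximal effect; % of control where 0% means no effect; nearly all actives have a fitted effect of over 65% in size; a mitochondrial uncoupler was the plate control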
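Measures PINK1 amount and localization on or inside mitochondria by immunofluorescence. Stable cells get compounds at 5 concentrations for 24 hours before fixation and staining; CCCP controls included.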
CtBP-E1A inh – qHTS Assay for Inhibitors of the CtBP/E1A Interaction; AlphaScreen GST-E1A/His-CtBP binding, 1536-well; active compounds read low; control for the full effect not named in the record; AID 651724, 2012; activity change, % (no concentration beside the values); 340,000 tested, 0.49% active; in the data active means activity change below about -65%; inconclusive means about -30% to -65%; inactive means above about -30%; further: on the % scale 0 is the no-effect control and ±100 the full control effect
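Homogeneous bead-based format: GST-tagged E1A captured on glutathione donor beads, His-tagged CtBP on nickel acceptor beads; compounds precede bead addition by 2 h at 37 °C.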
TRPML1 ag – qHTS for Agonists of the Human Mucolipin Transient Receptor Potential 1 (TRPML1); Mucolipin-1 (Homo sapiens), Q9GZU1; TRPML1-expressing cells, Ca2+ dye fluorescence, FDSS; host cell line not named in the record; reference of the full effect not given here; activation, % (test concentration not listed); 410,000 tested, 0.12% active; in the data active = activation above about 50%; inconclusive = about 30% to 50%; inactive = below about 30%; further: 0% is about no effect; the text of the record puts the active cut at 80%
Target sequence (Q9GZU1 whole entry, looked up): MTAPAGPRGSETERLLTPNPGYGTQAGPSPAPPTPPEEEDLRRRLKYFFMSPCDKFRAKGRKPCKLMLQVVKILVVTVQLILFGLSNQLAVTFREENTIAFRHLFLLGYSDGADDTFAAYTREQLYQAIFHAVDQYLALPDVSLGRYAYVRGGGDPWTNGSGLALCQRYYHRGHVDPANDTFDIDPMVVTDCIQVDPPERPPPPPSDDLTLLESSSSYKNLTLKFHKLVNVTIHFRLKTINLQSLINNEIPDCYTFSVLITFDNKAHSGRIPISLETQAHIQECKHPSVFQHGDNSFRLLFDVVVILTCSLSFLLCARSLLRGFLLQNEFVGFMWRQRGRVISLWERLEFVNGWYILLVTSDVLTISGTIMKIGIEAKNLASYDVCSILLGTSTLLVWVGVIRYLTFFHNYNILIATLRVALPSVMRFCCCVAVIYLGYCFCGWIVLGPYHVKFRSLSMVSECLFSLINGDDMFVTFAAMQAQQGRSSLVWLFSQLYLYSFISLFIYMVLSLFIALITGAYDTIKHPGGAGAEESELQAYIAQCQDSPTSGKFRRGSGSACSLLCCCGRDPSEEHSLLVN
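Agonist activity was taken from a 110 s kinetic Ca2+ dye read on the FDSS after pinning compounds onto TRPML1-DL cells. The cells were seeded at 1,500/well with Tet inducer, incubated about 16 h, then dye-loaded at room temperature.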
The depositor's hits bear a star; ? = inconclusive; . = not tested or not shown; [ ] = another dose, or the depositor's remark.

SMILES	D2 agonist	D2 PAM	Six1-Eya2 inh	PINK1 modulator	CtBP-E1A inh	TRPML1 ag
N#CC1=C(N)Oc2cc(Nc3ccccc3)ccc2C1c1ccncc1 (configuration not stated)	-1.6	-5	-6	1.1%	-3	0.9
COc1ccc(C(=O)NC2CC2)cc1OC1CCN(Cc2cc(C)cc(C)c2)CC1	-0.8	-35	-9	-0.4%	-2	0.9
COC(=O)[C@@]1(Cc2ccccc2)[C@H]2C(=O)N(Cc3ccccc3)C(=O)[C@H]2[C@H]2CN=C(SCC(=O)c3ccccc3)N21	-0.7	-7	-12	-0.6%	-6	2.0
Cc1cc(C)c2c(N)c(C(=O)N/N=C/c3cccs3)sc2n1	2.4	6	12	25µM*	0	0.8
O=C(Nc1ccnc(-c2ccncc2)n1)C1CC1	-1.4	-5	0	1.1%	8	2.1
Nc1ncnc2c1ncn2[C@@H]1O[C@H](CNCc2ccccc2OC2OC(CO)C(O)C(O)C2O)[C@@H](O)[C@H]1O (some centres not stated)	-1.0	.	-1	-0.3%	7	-0.4
O=C1CSC(c2cccc([N+](=O)[O-])c2)N1C1CC2CCC1C2 (configuration not stated)	-6.7	-8	3	4.4%	3	-0.2
CCC(C(=O)NCCN1CCN(C)CC1)n1c(C)c2cnn(-c3ccccc3)c(=O)c2c1C (configuration not stated)	-2.1	-46	-3	-0.1%	12	-0.5
Cc1cc(NC(=O)CCCN2C(=O)/C(=C\c3cccs3)SC2=S)no1	-9.9	-4	0	5.1%	-1	-0.7
O=C(CSc1nc2nn(-c3ccccc3)c(=O)c-2c2n1CCCCC2)c1ccc(OC(F)F)cc1	-2.1	-2	-13	-1.0%	-12	-0.8
CCOC(=O)c1ccc(Nc2c(CC)c(C)nc3ncnn23)cc1	0.6	-7	-4	1.3%[38.3 µM]	-8	1.4
O=S(=O)(CS(=O)(=O)c1ccccc1)c1ccccc1	1.9	-1	4	3.7%	3	-0.5
COC(=O)c1sccc1NC(=O)c1sccc1C	2.9	-19	1	1.2%	-13	3.5
O=C(CNC(=O)c1ccco1)NCC(=O)OCc1ccc(C(=O)Oc2ccc(Cl)cc2)cc1	0.2	-17	-7	.	1	0.7
CN(C)S(=O)(=O)c1cccc(C(=O)N2CCN(Cc3ccccc3)CC2)c1	0.2	-7	3	1.4%	2	-0.4
CC(=O)Nc1ccc(S(=O)(=O)Nc2nc3ccccc3nc2-n2ccc(=NC(=O)c3ccccc3)cc2)cc1	-4.8	-5	?	1.0%	-14	0.0
COc1ccc(N2CCN(CCCNC(=O)C(=O)c3c(C)[nH]c4ccccc34)CC2)cc1	-1.4	-15	-19	1.6%	-22	-0.2
COC(=O)Cn1nc(-c2ccccc2)c2cc(Cl)ccc21	0.9	0	10	-0.3%[38.3 µM]	10	0.9
Nc1ccc(S(=O)(=O)NC2(C(F)(F)F)NC(=O)N(c3ccccc3Cl)C2=O)cc1 (configuration not stated)	-2.0	13	1	1.1%	7	-0.6
CC1CCc2nc(NC(=O)CN3CCN(c4ccccc4)CC3)sc2C1 (configuration not stated)	-2.9	-5	-2	-0.8%	-3	-1.4
CCC(=O)N1CCc2cc(S(=O)(=O)CCC(=O)Nc3ccc(OC)c(OC)c3)ccc21	2.6	1	7	0.5%	1	1.9
O=C(CN1C(=O)S/C(=C\c2ccccc2)C1=O)NCCCn1ccnc1	2.9	-5	-10	0.5%	-12	-1.2
Cc1ccc(CNC(=O)C2CCN(S(=O)(=O)c3cccs3)CC2)o1	-0.1	-7	1	5.0%[38.3 µM]	0	2.8
O=C(N/N=C/C=C/c1ccccc1)c1ccc(Br)cc1	0.4	-2	-3	6.9%[38.3 µM]	1	-0.3

Reprinted from the entries so far for reference:
SMILES	D2 agonist	D2 PAM	Six1-Eya2 inh	PINK1 modulator	CtBP-E1A inh	TRPML1 ag
Cc1ccc(CNC(=O)C2CCN(S(=O)(=O)c3cccs3)CC2)o1	-0.1	-7	1	5.0%[38.3 µM]	0	2.8
O=C(N/N=C/C=C/c1ccccc1)c1ccc(Br)cc1	0.4	-2	-3	6.9%[38.3 µM]	1	-0.3

(list continues)
SMILES	D2 agonist	D2 PAM	Six1-Eya2 inh	PINK1 modulator	CtBP-E1A inh	TRPML1 ag
C#CCOCCOCCOCCNc1nc(N2CCN(C(=O)[C@H]([C@@H](C)CC)n3cc(CCCN=C(N)N)nn3)CC2)nc(N2CCN(C(=O)[C@H](Cc3ccc(O)cc3)n3cc(CCO)nn3)CC2)n1	-4.9	-12	3	0.0%	2	-0.4
CCOC(=O)c1c(C)[nH]c(C(=O)COC(=O)c2cccnc2Cl)c1C	1.7	-7	-12	1.3%	.	0.8
COc1ccc(NC(=O)C(CCCCNC(=O)OC(C)(C)C)NC(=O)OCc2ccccc2)cc1 (configuration not stated)	-0.6	2	7	1.4%	16	1.8
Cc1ccc(C(=O)NCC(=O)OCC(=O)Nc2ccccc2[N+](=O)[O-])cc1	-6.0	-2	-1	-1.8%	8	2.5
CNc1nccc(-c2ccc(F)cc2)c1C#N	0.7	-5	2	0.8%	-1	1.6
CC(=O)Nc1ccc(C(=O)NNC(=O)c2cccs2)cc1	-5.0	3	1	1.3%	6	-1.0
O=C(CN1CCN(C(=S)NC2CCCC2)CC1)Nc1ccc(Oc2ccccc2)cc1	3.3	-2	-5	0.4%	2	0.8
CCOC(=O)N1CCN(C(=O)c2ccc(C#CC3(O)CCCCC3)cc2)CC1	11	-6	5	0.6%	6	2.0
CCC(NC(=O)CNC(=O)c1ccc2c(c1)OCO2)c1ccc(Br)cc1 (configuration not stated)	-3.6	-24	6	2.8%	-2	4.1
CC(NC(=O)c1ccc2c(c1)OCO2)C1CCCO1 (configuration not stated)	-1.0	-2	1	7.2%[38.3 µM]	8	1.3
O=C(c1ccccc1)N1CCN(C(=O)c2ccc([N+](=O)[O-])cc2)CC1	-1.1	0	5	-2.3%	4	-0.2
O=C(NCCCO)C(=O)NCC1OCCCN1S(=O)(=O)c1cccs1 (configuration not stated)	1.3	-8	9	-1.0%	-4	0.0
Cc1cc(O)c(Oc2cc(C)cc(O)c2O)c(O)c1	13	?	-16	1.1%	-1	.
Cc1ccc(NC(=O)C(C)OC(=O)/C=C/c2ccccc2)cc1S(=O)(=O)N1CCOCC1 (configuration not stated)	-2.8	-4	-12	12%	?	-0.4
COc1cc(NC(=O)c2ccccc2[N+](=O)[O-])c(C(=O)O)cc1OC	5.8	4	12	0.0%	6	-0.5
CC(=O)NC1(C(F)(F)F)C(=O)Nc2c1c(=O)[nH]c(=O)n2Cc1ccco1 (configuration not stated)	2.8	-4	0	5.9%	-4	-0.3
OCC(O)C(O)C(O)C(O)c1nc2ccccc2[nH]1 (configuration not stated)	1.5	-2	3	3.1%	.	-0.8
Cc1ccc(-n2c(SCc3nc4ccccc4c(=O)[nH]3)nnc2-c2ccccc2O)cc1	-1.2	-11	-11	1.4%	-6	-0.8
Cc1cc2nc(-c3ccc(Cl)cc3)c(Cc3cccc(Cl)c3)n2c(C)c1Br	.	.	-6	-0.6%	-1	-0.4
CC(O)(c1ccc(F)c(F)c1)c1nc(-c2cccc(F)c2)cs1 (configuration not stated)	12	-3	15	24%	11	0.5
COc1ccc(OC)c(S(=O)(=O)N2CCN(Cc3ccccc3)CC2)c1	-1.8	1	-1	1.5%	.	.
Cc1cccc(-n2c(-c3ccccc3)c[nH]c2=S)c1C	0.4	-2	-15	-0.6%	-16	-0.4
CCOC(=O)c1cc(CC)sc1NC(=O)C(c1ccccc1)c1ccccc1	-4.4	-11	16	5.1%	7	-0.1
OCCC1CN(Cc2cccc3nccnc23)CCN1C1CCCC1 (configuration not stated)	0.8	-16	4	-1.9%	4	-0.3

Reprinted at random: four records from the list.
SMILES	D2 agonist	D2 PAM	Six1-Eya2 inh	PINK1 modulator	CtBP-E1A inh	TRPML1 ag
Cc1cccc(-n2c(-c3ccccc3)c[nH]c2=S)c1C	0.4	-2	-15	-0.6%	-16	-0.4
CC(O)(c1ccc(F)c(F)c1)c1nc(-c2cccc(F)c2)cs1 (configuration not stated)	12	-3	15	24%	11	0.5
O=C(c1ccccc1)N1CCN(C(=O)c2ccc([N+](=O)[O-])cc2)CC1	-1.1	0	5	-2.3%	4	-0.2
COC(=O)[C@@]1(Cc2ccccc2)[C@H]2C(=O)N(Cc3ccccc3)C(=O)[C@H]2[C@H]2CN=C(SCC(=O)c3ccccc3)N21	-0.7	-7	-12	-0.6%	-6	2.0

(listing goes on)
SMILES	D2 agonist	D2 PAM	Six1-Eya2 inh	PINK1 modulator	CtBP-E1A inh	TRPML1 ag
CCOc1ccccc1OCCCC(=O)Nc1cccc(S(=O)(=O)N2CCOCC2)c1	-0.5	2	-3	0.3%	2	0.2
COc1ccc(C(=O)OCC(=O)N2CCC(C)CC2)cc1S(=O)(=O)N1CCOCC1	1.4	13	-1	1.1%	2	-0.8
Cc1cccc(-n2nnc3c(=O)n(Cc4ccccn4)cnc32)c1	1.8	3	1	0.1%	0	2.0
CCCn1c(N)c(N(CCOC)C(=O)COC(=O)COc2c(C)cc(C)cc2C)c(=O)[nH]c1=O	-2.6	-15	7	0.8%	6	-0.4
O=C(OCCN=C1NS(=O)(=O)c2ccccc21)c1ccccc1F	1.0	-1	-9	-2.3%	-1	1.6
CCN(CCn1cccn1)Cc1c(C(=O)N2CCCCCCC2)nc2ccc(Cl)cn12	-3.7	-3	2	2.2%	7	0.0
CC(=O)NCC(=O)OCC(=O)c1ccc(C)cc1	-11	2	-1	1.7%	7	0.0
CCCc1cc(=O)oc2c(C)c(OC(C)C(=O)NCc3ccccn3)ccc12 (configuration not stated)	-3.6	-1	4	-0.8%	.	3.5
COc1ccc(CNC(=O)C2CCN(C(=O)c3sccc3-n3cccc3)CC2)cc1	-6.6	-8	-2	-1.3%	-9	0.3
Cc1ccc2nc(C(Cl)(Cl)Cl)nc(N/N=C/c3ccncc3)c2c1	7.3	0	1	-1.5%	3	1.3
Cc1cccc(CNC(=O)c2ccc(NC(=O)C3=CSCCO3)cc2)c1	1.1	-2	-1	0.9%	2	0.7
COc1ccc(NC(=O)CN(C)C(=O)CCCN2C(=O)c3cccc4cccc(c34)C2=O)cc1	5.4	-7	-16	-2.2%	-13	0.0
O=C(NC(c1ccccc1)c1ccccc1)N1CCN(CCO)CC1	-1.5	-16	2	3.9%[38.3 µM]	5	5.6
CCCCCC(=O)N1CCN(S(=O)(=O)c2ccc3c(c2)OCCCO3)CC1	-1.0	-20	5	-0.5%	6	0.2
